From PubChem
Rce1 inhib = blocks yeast Ras-converting enzyme; Q03530; yeast membranes, quenched prenylated peptide cleavage fluorescence; calls only; hit rate 0.27% among 290,000;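 active = fall in fluorescence gain of 50% or more versus controls, with final raw signal at or below 3038400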;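 also: plate controls were neutral control wells for no effect and wells lacking membranes for full effect; tested at 10 µM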
Target sequence (Q03530 whole entry, looked up): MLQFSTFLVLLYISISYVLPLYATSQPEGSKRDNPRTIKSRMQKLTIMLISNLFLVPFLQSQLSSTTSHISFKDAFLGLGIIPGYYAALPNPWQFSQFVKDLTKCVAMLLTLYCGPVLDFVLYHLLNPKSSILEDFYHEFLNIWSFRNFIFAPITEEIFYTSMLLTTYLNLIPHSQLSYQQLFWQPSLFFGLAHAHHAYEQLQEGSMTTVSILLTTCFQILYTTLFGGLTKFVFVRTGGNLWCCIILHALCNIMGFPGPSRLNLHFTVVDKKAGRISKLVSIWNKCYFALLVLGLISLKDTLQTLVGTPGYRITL
UUG fidelity = modulators of start codon recognition fidelity in yeast; S. cerevisiae UUG-firefly luciferase reporter, luminescence/redox ratio; activity score, % at 18.7 µM; hit rate 0.13% among 350,000; AID 602363;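 active = replicate mean at a twofold rise or more, about +100% in these data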;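 also: firefly luciferase made from a UUG start codon reports start codon fidelity; reporter light over untreated wells divided by growth signal over untreated wells; some hits fall short of that in this replicate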
PABP polyA inh = PABP-poly(A) binding inhibition. hit rate 1% among 290,000. inhibition, % at 35 µM. PABP-poly(A) RNA binding, fluorescence polarization. P11940. AID 2014;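 active = 50% or more with normal probe brightness, or confirmed in later tests; about a fifth of its hits are not listed in these tables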;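 also: calls also rest on retests at 20 µM and on dose response follow-up; controls were probe without protein and protein plus probe with vehicle; some compounds called inactive have numbers as strong as hits; many hits fall short of the cut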
Target sequence (P11940 whole entry, looked up): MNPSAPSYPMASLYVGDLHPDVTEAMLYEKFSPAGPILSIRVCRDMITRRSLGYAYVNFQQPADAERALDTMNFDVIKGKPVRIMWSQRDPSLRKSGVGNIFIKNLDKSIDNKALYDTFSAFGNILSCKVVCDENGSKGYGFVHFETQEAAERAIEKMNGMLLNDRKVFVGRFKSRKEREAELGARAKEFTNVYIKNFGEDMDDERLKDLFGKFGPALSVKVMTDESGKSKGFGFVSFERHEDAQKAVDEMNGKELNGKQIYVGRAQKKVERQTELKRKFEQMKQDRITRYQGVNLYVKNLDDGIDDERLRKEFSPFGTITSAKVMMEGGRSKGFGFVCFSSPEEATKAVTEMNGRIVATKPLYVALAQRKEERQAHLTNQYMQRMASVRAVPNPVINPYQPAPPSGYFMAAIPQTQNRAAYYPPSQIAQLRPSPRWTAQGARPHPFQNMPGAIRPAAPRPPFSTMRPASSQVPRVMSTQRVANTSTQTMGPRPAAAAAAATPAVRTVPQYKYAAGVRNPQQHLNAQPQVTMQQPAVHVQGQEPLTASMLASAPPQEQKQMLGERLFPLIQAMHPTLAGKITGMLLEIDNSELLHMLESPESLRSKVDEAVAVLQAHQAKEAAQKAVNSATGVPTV
CSC inhib = blocks cancer stem cells. inhibition, % at 7.5 µM. hit rate 1.1% among 300,000. cancer stem cell-like cells viability, luminescence;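 active = mean at 75% or more and at least half the replicates too; tested in HMLE shEcad cells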;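 also: 0% = median of negative and 100% = median of positive control wells; the first replicate is given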
MT1-MMP act inh = inhibitors of human MT1-MMP activation; hit rate 0.061% among 360,000; GFP/RFP ratio change, % at 20 µM; P50281; HT1080 RFP-PRO-GFP cells, GFP/RFP ratio fluorescence, overnight; percent of plate control window, DMSO zero; AID 651647;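 active = GFP/RFP ratio change of at least 30% with cell ATP level not reduced by more than half and red fluorescence within 50% of control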; also: strong numbers were not always called active
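Assay system: HT1080 RFP-PRO-GFP cells. Benchmarks: DMSO vehicle wells and RFP-L50D-GFP reporter cell wells. Times: overnight cell settling, then overnight compound exposure, 37 °C, 5% CO2. Compound: 20 µM single dose, 1% DMSO. Read-out basis: GFP/RFP fluorescence ratio.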
eIF4H inh = inhibitors of RNA binding by human eIF4H | Q15056 | eIF4H fluorescence polarization binding assay | inhibition, % at 35 µM | hit rate 0.94% among 290,000;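 active = 50% or more with normal probe brightness, or confirmed in later tests; about a fifth of its hits are not listed in these tables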;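 also: calls also rest on retests at 20 µM and on dose response follow-up; 0% = protein and probe with vehicle and 100% = probe without protein; strong numbers were not always called active; many hits fall short of the cut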
Env fusion inh = HIV envelope-mediated fusion inhibition. HeLa-JRFL Env/CEM21 cell fusion, luciferase. inhibition, % at 12.3 µM. hit rate 1.1% among 360,000;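 active = mean replicate inhibition score of at least 50 and every replicate individually at or above 50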;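 also: 0% = plate neutral controls and 100% = maraviroc near 300 nM; one replicate is shown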
eIF4H inh retest = also measured in eIF4H inh; calls as there; inhibition, %; compound at 20 µM; confirmation average;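 mean of two retest wells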
PABP polyA inh retest = also measured in PABP polyA inh; calls as there; inhibition, %; compound at 20 µM; confirmation repeats;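 mean of two retest wells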
MT1-MMP act inh RFP = also measured in MT1-MMP act inh; calls as there; RFP signal change, %; measured here: RFP expression control read;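 0 = vehicle wells; hits needed this value within 50% of zero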
* = called active by the depositor; i = inactive; . = no result given; & = joins results of further samples.

SMILES	Rce1 inhib	UUG fidelity	PABP polyA inh	CSC inhib	MT1-MMP act inh	MT1-MMP act inh RFP	eIF4H inh	Env fusion inh	others
O=C(c1ccccc1)c1ccc(OCCCN2CCCC2)cc1	i	-4.2	-7.6	61.7	5.8	4.7	0.7	.
O=C(NNc1cccc(Cl)n1)c1ccccc1CC[N+](=O)[O-]	i	-17.7	13.0	-1.8	-10.8	-1.0	-0.7	-23.3
COc1ccc(CN2C[C@@H](CO)O[C@@H](n3cnc4c(NCCN(C)C)ncnc43)C2)cc1	.	-7.9	.	.	-0.7	6.0	.	-2.2
COC(=O)C1CN(C(=O)COc2ccc(Cl)c(C)c2)c2ccccc2O1 (configuration not stated)	i	-24.1	-4.7	-2.3	-2.1	3.8	-2.7	1.9
COc1ccc(C2=C(C=Nc3c(C)n(C)n(-c4ccccc4)c3=O)C(c3ccccc3C)c3ccccc3O2)cc1OC (configuration not stated)	i	-20.3	-4.2	-1.1	-13.4	-7.0	-6.6	.
Cc1ccc(-n2ncc(C(=O)N3CCN(C(=O)c4ccco4)CC3)c2C2CCN(C(=O)OC(C)(C)C)CC2)cc1C	i	-13.1	.	5.5	-0.2	-0.5	.	-4.3
COc1ccc(S(=O)(=O)NCCSCc2cccs2)cc1	i	-11.5	3.0	-5.4	6.0	3.3	-8.9	-60.7
O=C(CNc1cccc2ccccc12)N/N=C/c1ccc(C(=O)O)cc1	i	0.2	2.3	3.8	5.8	5.4	83.8	2.0	eIF4H inh retest=-12.2;PABP polyA inh retest=3.9
Cn1nnnc1SCC(=O)N1CCN(C(=O)c2ccco2)CC1	i	.	4.5	-6.7	-1.6	-0.5	-4.0	6.6
COc1ccccc1-c1nnc(SCC(=O)Nc2oc(C)c3c(C)n[nH]c(=O)c23)n1C	i	-15.2	.	11.3	4.4	2.9	.	.
Cc1ccc(-c2nc(CN(C)C(C3CC3)C3CC3)c(C)o2)cc1	i	-8.7	0.9	-7.0	-3.0	0.2	-8.3	9.0
NC(=O)CCN1CCN(Cc2nc(C(c3ccccc3)c3ccccc3)no2)CC1	i	.	3.9	-16.7	-4.2	-3.4	-11.7	12.1
Clc1cc(Br)ccc1OCCCn1ccnc1	i	.	-1.5	17.4	0.3	-0.7	6.0	-65.1
NNc1nc(NCc2ccccc2)nc(N2CCOCC2)n1	i	-35.4	7.4	-2.8	4.3	3.4	-6.3	.
CN1CCN(C(=O)/C(=C\c2ccccc2)c2ccccc2)CC1	i	-21.8	19.1	-10.0	0.0	7.0	1.5	-15.4
NCCCC[C@H]1CN=C(N)N1CCCCC1CCCCC1	i	-15.6	.	-4.2	-0.6	5.3	.	-17.0
COc1cccc(N2CCN(c3ccc4nnc(CCC(=O)Nc5ncccc5C)n4n3)CC2)c1	i	-6.7	9.8	-9.8	0.1	1.1	1.9	4.6
Cc1ccc(S(=O)(=O)Nc2ccc3c(c2)CC(=O)N([C@H](C)CO)C[C@@H](C)[C@H](CN(C)S(=O)(=O)c2ccccc2)O3)cc1	.	-11.3	.	-19.6	2.1	7.9	.	-7.7
CCn1c(CC(=O)Nc2ccccc2F)nnc1SCC(=O)NC1CCCCC1	i	-10.3	14.0	.	-0.8	1.1	-9.9	13.9
Cc1ccc(Cn2cc(S(=O)(=O)c3ccc(C(C)C)cc3)c(=O)c3cc4c(cc32)OCO4)cc1	i	.	-6.3	-8.8	-1.0	-1.6	-13.2	.
Cc1cc(C)cc(NC(=O)COC(=O)CN=C2NS(=O)(=O)c3ccccc32)c1	i	.	2.9	-4.4	2.6	2.8	-0.8	-3.1
CCOc1ccc(-n2c(-c3ccccc3)c[n+]3c2CCC3)cc1	i	.	-8.1	-5.5	-0.7	-28.5	0.6	29.5
Cc1ccc(-c2nc3ccccc3s2)cc1NC(=S)NC(=O)c1ccccc1	i	-18.1	1.5	5.3	5.0	5.9	-14.1	.
CCCNNC(=O)C(O)(c1ccccc1)c1ccccc1	i	4.9	-1.8	-6.7	-7.1	-2.9	-1.3	3.9
CCN(CC)S(=O)(=O)c1ccc(C(=O)NC(=S)N2CCCCC2C)cc1 (configuration not stated)	.	-28.6	.	.	6.8	3.1	.	-0.5

Arranged by length of the SMILES (ascending): twelve of the compounds above
SMILES	Rce1 inhib	UUG fidelity	PABP polyA inh	CSC inhib	MT1-MMP act inh	MT1-MMP act inh RFP	eIF4H inh	Env fusion inh	others
NNc1nc(NCc2ccccc2)nc(N2CCOCC2)n1	i	-35.4	7.4	-2.8	4.3	3.4	-6.3	.
O=C(c1ccccc1)c1ccc(OCCCN2CCCC2)cc1	i	-4.2	-7.6	61.7	5.8	4.7	0.7	.
Cn1nnnc1SCC(=O)N1CCN(C(=O)c2ccco2)CC1	i	.	4.5	-6.7	-1.6	-0.5	-4.0	6.6
O=C(NNc1cccc(Cl)n1)c1ccccc1CC[N+](=O)[O-]	i	-17.7	13.0	-1.8	-10.8	-1.0	-0.7	-23.3
CCn1c(CC(=O)Nc2ccccc2F)nnc1SCC(=O)NC1CCCCC1	i	-10.3	14.0	.	-0.8	1.1	-9.9	13.9
Cc1ccc(-c2nc3ccccc3s2)cc1NC(=S)NC(=O)c1ccccc1	i	-18.1	1.5	5.3	5.0	5.9	-14.1	.
Cc1cc(C)cc(NC(=O)COC(=O)CN=C2NS(=O)(=O)c3ccccc32)c1	i	.	2.9	-4.4	2.6	2.8	-0.8	-3.1
COc1cccc(N2CCN(c3ccc4nnc(CCC(=O)Nc5ncccc5C)n4n3)CC2)c1	i	-6.7	9.8	-9.8	0.1	1.1	1.9	4.6
COc1ccc(CN2C[C@@H](CO)O[C@@H](n3cnc4c(NCCN(C)C)ncnc43)C2)cc1	.	-7.9	.	.	-0.7	6.0	.	-2.2
Cc1ccc(Cn2cc(S(=O)(=O)c3ccc(C(C)C)cc3)c(=O)c3cc4c(cc32)OCO4)cc1	i	.	-6.3	-8.8	-1.0	-1.6	-13.2	.
COc1ccc(C2=C(C=Nc3c(C)n(C)n(-c4ccccc4)c3=O)C(c3ccccc3C)c3ccccc3O2)cc1OC (configuration not stated)	i	-20.3	-4.2	-1.1	-13.4	-7.0	-6.6	.
Cc1ccc(-n2ncc(C(=O)N3CCN(C(=O)c4ccco4)CC3)c2C2CCN(C(=O)OC(C)(C)C)CC2)cc1C	i	-13.1	.	5.5	-0.2	-0.5	.	-4.3

Later entries.
SMILES	Rce1 inhib	UUG fidelity	PABP polyA inh	CSC inhib	MT1-MMP act inh	MT1-MMP act inh RFP	eIF4H inh	Env fusion inh	others
CNC(=O)c1[nH]cnc1C(=O)Nc1cccc(C)c1	.	-10.7	.	-15.9	5.6	2.3	.	-23.0
CC1(C)CC(NC(=O)N2c3ccccc3Sc3ccccc32)CC(C)(C)N1	i	.	1.8	-3.6	-2.0	0.9	-8.8	-1.7
Cn1c(SCC(=O)N2CCOCC2)nnc1-c1cccc(NC(=O)c2ccccc2)c1	i	-15.2	.	-11.1	-2.7	4.4	.	.
C[C@]12CC[C@@H]3c4ccc(O)cc4C(=O)C[C@H]3[C@@H]1CC[C@@H]2O	i	1.1&1.6	5.3	-1.0	0.2	0.7	-2.1	.
CCNC(=S)N(Cc1ccco1)Cc1cc2cc3c(cc2[nH]c1=O)OCCO3	i	.	-6.5	.	-1.3	-1.1	3.9	-15.5
O=C(Nc1nccs1)c1ccc2c(=O)n3c(nc2c1)CCCCC3	i	-9.1	12.1	2.7	4.6	1.7	-5.4	-14.0
CCCCOc1cccc(C(=O)Nc2ccc(NC(=O)c3cccs3)cc2)c1	i	-9.9	-1.6	.	2.0	-0.2	-8.0	-6.4
CCc1nnc(NC(=O)CSc2nnc(Cc3ccc(OC)cc3)o2)s1	i	-22.1	2.6	-6.5	5.9	2.3	-2.7	-16.3
CC(C)(C)C(=O)Nc1cccc(-c2nc3ccccc3c(=O)o2)c1	i	-12.1	2.4	-9.4	-8.1	0.7	8.0	-71.7
OCCN1CCN(c2ncnc3c2ncn3[C@H]2CN(Cc3ccc(Cl)cc3)C[C@@H](CO)O2)CC1	.	-2.2	.	.	-1.1	3.0	.	-11.4
Cc1ccc(C(=O)N/C(=C/c2ccco2)C(=O)OCN2C(=O)c3ccccc3C2=O)cc1	i	.	0.9	7.6	-4.5	0.9	79.3*	-8.1	eIF4H inh retest=84.1*;PABP polyA inh retest=36.7
COc1cc(NC(=O)[C@H]2O[C@@H](n3cnc4c(N)ncnc43)[C@H](O)[C@@H]2O)cc(OC)c1OC	.	0.2	.	.	2.2	5.9	.	-10.4
CCn1c(SCC(=O)N/N=C/c2ccc(C)s2)nc2ccccc21	i	.	31.3	58.5	-1.3	-7.4	3.8	-30.8
O=C(Nc1ccc(F)cc1)C(NC1CCCCC1)c1ccccc1 (configuration not stated)	i	4.6	56.3*	-7.4	4.2	1.7	2.7*	10.6	eIF4H inh retest=98.3*;PABP polyA inh retest=102.4*
CCn1c(=O)c([N+](=O)[O-])c(NCCCn2ccnc2)c2ccccc21	i	.	0.4	-2.2	-3.8	-3.7	-1.9	-0.8
Cc1ccc(CNS(=O)(=O)c2ccc3c(c2)OCCO3)cc1	i	-3.2	-17.2	-26.1	6.0	3.5	1.4	.
Cc1ccc(NC(=O)c2ccco2)cc1NC(=O)CSc1nnc(-c2cccs2)n1C	i	-15.8	-1.5	-3.0	6.5	4.3	9.4	-17.7
CC(C)(C)c1ccc(OCC(O)CN(CCO)CC(O)Cn2ccc3ccccc32)cc1 (configuration not stated)	.	.	3.5	46.2	-0.6	-1.0	-0.8	15.6
COc1ccc(C2CC(c3ccccc3)=NN2C(=O)COC(=O)c2cc(S(=O)(=O)N3CCOCC3)ccc2F)cc1 (configuration not stated)	i	-14.9	4.8	-12.7	-3.3	-1.3	-4.0	9.1
O=C(COc1ccccc1)Nn1c(-c2ccccc2)nc2ccccc2c1=O	i	-5.0	7.0	-10.1	7.9	0.8	0.3	.
O=C(COC(=O)c1cccc(Cl)c1)NCc1ccccc1	.	-16.8	.	-14.3	-1.4	-1.0	.	0.8
COc1cccc(CNS(=O)(=O)c2ccc3c(c2)C(C)(C)C(=O)N3C)c1	i	-11.1	.	10.0	0.5	2.7	.	.
c1ccc(-c2cc3c(-n4cccc4)ncnc3o2)cc1	i	-24.0	-6.9	-8.2	-5.4	-0.6	-6.2	.
CC(=O)Nc1ccc(S(=O)(=O)N(C)CC(=O)OCC(=O)c2ccc3c(c2)NC(=O)CO3)cc1	.	-7.2	.	10.3	-1.3	1.1	.	21.4
O=C(CN(Cc1ccccc1)S(=O)(=O)c1ccc(Br)cc1)NCC1CCCO1 (configuration not stated)	i	12.9	-4.7	2.7	-1.1	1.2	-2.3	7.3
O=C(Nc1ccc([N+](=O)[O-])cc1)C(Cc1ccccc1)N1C(=O)c2cccc3cccc(c23)C1=O (configuration not stated)	i	.	-2.3	25.9	-19.1	4.2	10.4	-3.9
CCc1c(C)sc(NC(=O)c2cc(C)on2)c1C#N	i	3.3	-4.4	-0.5	6.5	1.3	4.9	-24.8
